Biofilm kill mix = mixtures killing C. albicans biofilm; AID 1242; inhibition, % at 7.6 µM; 120,000 compounds, 0.02% hits; C. albicans biofilm persisters + clotrimazole, fluorescence viability; primary screen in compound mixtures of four per well;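 active means inhibition above 30.3% in the primary screen of four-compound pools, then above 30% when the compound was retested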;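 further: compounds exposed to preformed 24 h biofilms for 48 h; the number belongs to the whole pool; some results filed as inactive read as strong as hits; inactives centre near 12; 0% = biofilm with clotrimazole alone and 100% = kill control; retested singly at about 60 µM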
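Test system: C. albicans CAF4-2 wild-type biofilms; buffer or medium: RPMI/MOPS medium, pH 7.0; schedule: 24 h biofilm formation, then 48 h compound exposure, 37 °C; detection: Alamar Blue fluorescence; measure: percent inhibition of biofilm viability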
* = called active by the depositor. A portion of the library (hit frequency here may not be typical).

Molecule | Biofilm kill mix
Clc1ccccc1-c1ncnc2ccc(Br)cc12 | 15
Cc1cc(O)c(C=O)c2c1C(=O)Oc1c(CO)c(O)c3c(c1O2)C(O)OC3=O (centres undefined) | 20
CC(C)C(NC(=O)OC(C)(C)C)C(=O)NC(CCC(=O)OCc1ccccc1)C(N)=O (centres undefined) | 16
O=C(NC1CCCCC1)Oc1cccc2ccccc12 | 8
O=[N+]([O-])c1ccccc1/C=C\C=N\N1CCN(c2ccccc2)CC1 | 17
O=C(Nc1ccccc1)c1ccccc1N=Cc1ccccc1O | 5
CC(CC(=O)Nc1nncs1)c1ccccc1 (centres undefined) | 10
Oc1ccc(/C=N/NC(=S)Nc2cccnc2)c(O)c1 | 15
COc1ccc(S(=O)(=O)N2CCCCC2)cc1NC(=O)CN1CCN(C(C)=O)CC1 | 3
COc1ccc(NC(=O)CC2Nc3ccccc3NC2=O)c([N+](=O)[O-])c1 (centres undefined) | 6
CC(CC(=O)O)Nc1ccccc1O (centres undefined) | 5
CC1Cc2ccccc2N1C(=O)COC(=O)c1ccc(O)cc1 (centres undefined) | 5
CCOc1ccccc1Nc1nnc(SCC(=O)NC(=O)c2cccn2C)s1 | 11
C/C(CC(=O)NCc1ccco1)=N\NC(=O)Cc1ccc(-c2ccccc2)cc1 | 7
CCOC(=O)N1CCN(c2cc(N3CCOCC3)c(F)cc2[N+](=O)[O-])CC1 | 4
CCc1cn([C@H]2C[C@H](O)[C@@H](CO)O2)c(=O)[nH]c1=O | 7
CC(=O)c1ccc(N=C2SCCCN2C(=O)C2CCCCC2)cc1 | 14
O=C1NCCN(Cc2cccc(Oc3ccccc3)c2)C1CC(=O)N1CCCCO1 (centres undefined) | 10
COc1ccc(CCNC(=O)Nc2ccc([N+](=O)[O-])cc2)cc1OC | 1
CCOC(=O)/C=C/CN(C(=O)OC(C)(C)C)S(=O)(=O)N1CC=CC1 | 9

6 compounds picked at random from the list so far:
Molecule | Biofilm kill mix
Oc1ccc(/C=N/NC(=S)Nc2cccnc2)c(O)c1 | 15
CCOC(=O)/C=C/CN(C(=O)OC(C)(C)C)S(=O)(=O)N1CC=CC1 | 9
C/C(CC(=O)NCc1ccco1)=N\NC(=O)Cc1ccc(-c2ccccc2)cc1 | 7
O=C1NCCN(Cc2cccc(Oc3ccccc3)c2)C1CC(=O)N1CCCCO1 (centres undefined) | 10
CC(=O)c1ccc(N=C2SCCCN2C(=O)C2CCCCC2)cc1 | 14
Cc1cc(O)c(C=O)c2c1C(=O)Oc1c(CO)c(O)c3c(c1O2)C(O)OC3=O (centres undefined) | 20

Remaining list, next part
Molecule | Biofilm kill mix
Cc1ccc(S(=O)(=O)Nc2nc(C)cc(N/N=C/c3ccc(O)cc3)n2)cc1 | 22
CC(=O)N(Cc1cccs1)Cc1cc2ccc(C)c(C)c2nc1Cl | 2
COc1cc(/C=N/NC(=O)c2cccnc2)ccc1OS(=O)(=O)c1cc(C)ccc1C | 8
Cc1ccc(C)c(NC(=O)CSc2nnc3n2CCCCC3)c1 | 18
CCCOC(=O)c1ccc(NC(=O)c2c(Cl)ccc(Cl)c2OC)cc1 | 16
Cc1ccc2c(c1)C1CN(C)CCC1N2C(=O)c1ccccc1NS(=O)(=O)c1ccc(F)cc1 (centres undefined) | 17
CC1Cc2ccccc2N1CC(=O)Nc1ccc(Cl)c(S(=O)(=O)N(C)C)c1 (centres undefined) | 13
O=C(C[N+]1(CC#Cc2ccccc2)CCCCC1)c1ccccc1 | 16
Cc1ccc(OCC(=O)Nc2ccc3c(c2)nc(CCN2CCN(C)CC2)n3C)cc1 | 17
O=c1cc(O)c2sc3nc4c(c(C(F)(F)F)c3c2[nH]1)CCCCC4 | 6
COc1ccc(C(=O)/C=C/c2ccc(O)cc2)c(O)c1CC=C(C)C | 12
O=C(CSc1nnc2c(Cl)cc(C(F)(F)F)cn12)NCc1ccc(F)cc1 | 11
COc1ccc(NC(=O)Nc2cccc([N+](=O)[O-])c2)cc1Cl | 3
CC1(C)Cc2ccccc2C2=NNC(=O)C2=N1 | 11
Cc1cc2c(c(SCC(=O)Nc3ccc(C)c(C)c3)n1)C(=O)OC2 | 18
O=C(O)CC1(CC(=O)NCc2ccc(C(F)(F)F)cc2)CCCCC1 | 22
CC1=C/C(=N\N=C2\NC(=O)C(CC(=O)Nc3ccccc3F)S2)CC(C)(C)C1 (centres undefined) | 19
CC(C)COC(=O)/C(C#N)=C/c1cn(Cc2ccccc2)c2ccccc12 | 3
Cc1ccc(C(=O)NCCN2CCNC2=O)cc1 | 18
Cc1cccc(NS(=O)(=O)c2cc(NC(=O)CC(=O)c3ccc([N+](=O)[O-])cc3)ccc2C)c1 | 24
Cc1nn2c(nc(N3CCCCC3)c3ccccc32)c1C=O | 20
CCOC(=O)CN1C(=O)S/C(=C/c2ccc3c(c2)n(C)c(=O)n3C)C1=O | 18
COc1ccc2cc(C(=O)C3CCCN(C(=O)c4snnc4C)C3)ccc2c1 (centres undefined) | 9
CNc1oc(/C=C/c2ccccc2)nc1C#N | 16
COCCCn1c(C)nnc1SCc1ccc(C(C)(C)C)cc1 | 4
CCOC(=O)c1c(N/N=C/c2cccnc2)n[nH]c1C | 17
CN(C[C@H](Cc1ccccc1)N(C[C@@H](Cc1cccc2ccccc12)N(CCc1ccccc1)N=O)N=O)N=O | 17
O=S(=O)(/N=C(\[O-])C[n+]1ccccc1)c1ccc(Cl)cc1 | 19
C#CCOCCOCCOCCNc1nc(N2CCN(C(=O)[C@H](Cc3cc4ccccc4[nH]3)n3cc([C@@H](N)CC(C)C)nn3)CC2)nc(N2CCN(C(=O)[C@H](Cc3cc4ccccc4[nH]3)n3cc([C@@H](N)CC(C)C)nn3)CC2)n1 | -2
CCCn1c(=O)c(-c2nc3ccccc3[nH]2)c(O)c2ccccc21 | 12
Cc1ccnc2nc(C(=O)OCCOc3ccc(F)cc3)nn12 | 37
CN(C)c1ccc(-n2cccc2/C=N/n2cnnc2)cc1 | 9
O=C(NCCCn1ccnc1)C(=O)NCC1OCCCN1S(=O)(=O)c1ccccc1 (centres undefined) | 9
CCSc1nc2[nH]ncc2c(=O)[nH]1 | 16
Cc1c(O)ccc(/C(Cc2ccc3ccccc3n2)=N\N)c1O | 16
COc1ccc([N+](=O)[O-])cc1NC(C)C | 10
C#CCOCCOCCOCCNc1nc(N2CCN(C(=O)C([C@@H](C)CC)n3cc(C(N)CC(C)C)nn3)CC2)nc(N2CCN(C(=O)[C@H](CCC(=O)O)n3cc(C(N)Cc4ccc(O)cc4)nn3)CC2)n1 (some centres undefined) | 16
CC(C)=CCN1CCN(Cc2ccc(N3CCNC3=O)cc2)CC1CCO (centres undefined) | 7
CCSc1nnc(NC(=O)c2cc(OC)c(OC)c(OC)c2)s1 | 4
COc1cccc(NC(=O)Nc2cc(C)ccc2OC)c1 | 3
CCn1c(SCC(=O)Nc2sc(C)c(C)c2C#N)nnc1C1CC1 | 11
c1ccc(-c2nnc(CSc3ccc4c(c3)OCCO4)o2)cc1 | 14
CCOc1cc(C)c(Cl)cc1S(=O)(=O)n1ccnc1 | 13
Cc1c(/C=N/Nc2ccc([N+](=O)[O-])cn2)c2ccccc2n1Cc1ccccc1 | 17
O=C(CCCC(=O)NCc1ccccc1)NCc1ccccc1 | 4
Cc1cc(C(=O)NCC(=O)OCC(=O)N2CCCCCC2)ccc1[N+](=O)[O-] | 9
CC(=O)Nc1ccc(Sc2ccccc2C(=O)O)c(C(=O)O)c1 | 0
CN(C)S(=O)(=O)c1cc(NC(=O)CN2CCN(c3ccccc3O)CC2)ccc1Cl | 7
CCN(CC)CCCNC(=S)N(Cc1ccco1)Cc1cc2cc3c(cc2[nH]c1=O)OCCO3 | 15
O=C(O)c1cccc(S(=O)(=O)N2CCN(C(c3ccccc3)c3ccccc3)CC2)c1 | 0
Cc1ccc(/C=C/C(=O)NC2=NCCS2)cc1 | 16
COc1ccccc1CN=c1c([N+](=O)[O-])nn(-c2ccc3c(c2)OCCO3)n1O | 15
[O-]/C(=C(\C(=S)Nc1ccc(Cl)cc1)[n+]1ccccc1)c1ccc(OC(F)F)cc1 | 3
COc1ccc(NS(=O)(=O)c2cc(C(=O)N3CCN(C(C)=O)CC3)ccc2Cl)cc1 | 9
CC1(C)CC(=O)C(C=Nc2ccc(NC3=C(C#N)C(=O)CC(C)(C)C3)cc2)=C(O)C1 | 16
CCC(C(=O)Nc1cc(C(=O)Nc2cc(C)ccn2)ccc1Cl)c1ccccc1 (centres undefined) | 11
CCc1c(C)[nH]c(C(=O)OCc2ccccc2)c1C | -1
O=C(O)CCCn1cc(NC(=O)c2cc(F)c(F)cc2Cl)cn1 | 14
CC1CCCCC1NC(=O)COC(=O)CNC(=O)c1cccc(F)c1 (centres undefined) | 10
CSCCC1C(=O)OC2(C)CC(C)(C)NC(=S)N12 (centres undefined) | 9

More structures follow.
Structure,Biofilm kill mix
O=C(NC(Cc1ccccc1)C(=O)O)C1CCCCC1 (centres undefined),4
O=C(N/N=C/c1cc([N+](=O)[O-])ccc1Cl)c1cc(-c2ccccc2)nc2ccccc12,20
CCc1ccc(CNC(=O)Cn2nc(-c3ccccc3)ccc2=O)cc1,2
Cn1c(=O)c(C(=O)COC(=O)c2cc(-c3ccco3)nc3ccccc23)c(N)n(Cc2ccccc2)c1=O,15
O=C1CC(c2ccc(Br)cc2)NC(c2ccc(Br)cc2)C1c1ccccc1 (centres undefined),10
O=C(CNCc1cccnc1)Nc1cc(C(F)(F)F)ccc1N1CCOCC1,28
COc1cccc(NC(=O)c2ccc(NC(=O)C3CC(=O)OC34CCCCC4)cc2)c1 (centres undefined),12
CCc1nnc(NC(=O)CN2CCN(C(=O)c3ccccc3)CC2)s1,6
CCOc1ccc(CN(C)CC(=O)Nc2ccc([N+](=O)[O-])cc2Cl)cc1,18
O=C(Cc1noc2ccccc12)Nc1ccc2ccccc2c1,21
COc1cc(SC)ccc1C(=O)OCC(=O)NC1CCCC1,25
CN(C)CC(O)CN1C(=O)N(CN2C(=O)N(CC(O)CN(C)C)C(=O)C2(C)C)C(C)(C)C1=O (centres undefined),-1
COc1ccc(Cl)cc1-c1csc(N)n1,1
COc1cc(/C=N/Nc2nc3ccccc3[nH]2)cc(OC)c1O,22
Cc1c(C(=O)N(C)C)c2cc(Cl)ccc2n1O,19

3 structures from above, sorted by SMILES length, descending:
Structure,Biofilm kill mix
O=C(CNCc1cccnc1)Nc1cc(C(F)(F)F)ccc1N1CCOCC1,28
CC(C)=CCN1CCN(Cc2ccc(N3CCNC3=O)cc2)CC1CCO (centres undefined),7
CC1CCCCC1NC(=O)COC(=O)CNC(=O)c1cccc(F)c1 (centres undefined),10

Further records follow:
Structure,Biofilm kill mix
O=C(NCCc1nc2ccccc2[nH]1)/C(=C/c1ccc2c(c1)OCO2)NC(=O)c1ccc(Cl)cc1Cl,16
CCC(=O)Nc1ccc2c(c1)ncn2-c1ccccc1C,17
C=CCn1c(SCC(=O)N(CC)C2CCS(=O)(=O)C2)nc2ccccc2c1=O (centres undefined),33
CCOc1ccc(NC(=O)Nc2nnc(CC(=O)NCc3ccccc3)s2)cc1,5
CCOc1ccccc1CN1CCN(C2CCOCC2)CC1CCO (centres undefined),28
O=C(O)CCC(NC(=O)c1ccc(Cl)cc1)C(=O)O (centres undefined),11
CSC1=N/C(=C\c2cccc(Cl)c2)C(=O)N1N(C)C,0
CCN(CC)C(=O)CSc1nc(-c2ccccc2)cc(=O)[nH]1,10
CSc1ccc(/C=N/NC(=O)COc2ccc(Br)cc2Cl)cc1,17
Cc1ccc(C(=O)NCC(=O)OCC(=O)c2ccc3c(c2)NC(=O)CO3)cc1,6
O=C(O)/C=C/C(=O)N(Cc1ccccc1)Cc1ccco1,12
COC(=O)c1ccc(C(=O)OC)c(NC(=O)CN2CCC(C)CC2)c1,17
CCN(CC)S(=O)(=O)c1cccc(NC(=O)COC(=O)c2n[nH]c(=O)c3ccccc23)c1,12
CC1(C)Cc2c(sc3nnn(CC(=O)Nc4ccccc4)c(=O)c23)CO1,0
COc1ccccc1NC(C)C(=O)Nc1ccc(C(C)=O)cc1 (centres undefined),14

Next part, overlapping the part above by 4 compounds.
Structure,Biofilm kill mix
COC(=O)c1ccc(C(=O)OC)c(NC(=O)CN2CCC(C)CC2)c1,17
CCN(CC)S(=O)(=O)c1cccc(NC(=O)COC(=O)c2n[nH]c(=O)c3ccccc23)c1,12
CC1(C)Cc2c(sc3nnn(CC(=O)Nc4ccccc4)c(=O)c23)CO1,0
COc1ccccc1NC(C)C(=O)Nc1ccc(C(C)=O)cc1 (centres undefined),14
CC(NC1CCCCC1)C(=O)NN=C(c1ccccc1)c1ccccc1 (centres undefined),12
Cc1nc2ccc(NC(=O)Cc3ccc(Br)cc3)cc2s1,19
Cc1cc(C(=O)N(C)C)sc1-c1ccccc1,16
CC(=O)Oc1ccc(C(=O)[C@H]2[C@H]3C(=O)N(c4ccc(C)cc4)C(=O)[C@H]3[C@@H]3C=CC=NN32)cc1,12
O=C(c1ccccc1-n1cccc1)N1N=C(C(F)F)CC1(O)C(F)F (centres undefined),11
CCc1nnc(NS(=O)(=O)c2ccc(NC(=O)c3cccc(Cl)c3)cc2)s1,7
Cc1ccc(C2C3=C(CC(C)(C)CC3=O)N=C3c4ccccc4C(=O)C32)cc1 (centres undefined),4
COc1ccc(NC(=O)NNC(=O)c2ccc(Cl)cc2Cl)cc1OC,14
COC(=O)C/C=C/[C@@H](C)[C@@H](/C=N/OC[C@H]1O[C@H](c2ccccc2)C=C[C@@H]1Oc1ccc(OC)cc1)OC,2
COc1ccc(NS(=O)(=O)c2cc(NC(=O)C3CC3)ccc2N2CCOCC2)cc1,2
Fc1cccc(Cl)c1CNc1ccc(N2CCCC2)cc1,9
Cc1ccc2c(Cl)cc(Cl)c(OCC(=O)Nc3cccc(S(=O)(=O)N(C)C)c3)c2n1,11
O=C(CSc1ccc(-c2ccc(Br)cc2)nn1)N1CCOCC1,20
CN(C)S(=O)(=O)c1ccc(C(=O)NCc2ccco2)cc1,24

Screening data (PubChem BioAssay)
